Calb biofilm kill: mixture kills Candida albicans biofilm cells; AID 1242; C. albicans biofilm persisters + clotrimazole, fluorescence viability; primary screen in compound mixtures of four per well; actives 0.02% (n = 120,000); inhibition, % at 7.6 µM;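 active means inhibition above 30.3% in the primary screen of four-compound pools, then above 30% when the compound was retested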;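 further: compounds exposed to preformed 24 h biofilms for 48 h; the number belongs to the whole pool; some results filed as inactive read as strong as hits; inactives centre near 12; 0% = biofilm with clotrimazole alone and 100% = kill control; retested singly at about 60 µM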
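Incubation: 24 h biofilm formation, then 48 h compound exposure, 37 °C | Material: C. albicans biofilms | Buffer or medium: RPMI/MOPS medium, pH 7.0 | Measured by: 2-h Alamar Blue fluorescence, 535/590 nm excitation/emission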
Starred values were filed as active, the others as inactive.

smiles | Calb biofilm kill
O=C(O)c1ccc(Cl)c(S(=O)(=O)Nc2cccc(C(=O)Nc3cccc(C(F)(F)F)c3)c2)c1 | 2
CNCc1c(OCc2ccccc2F)ccc2ccccc12 | 12
CCNc1ccc(S(=O)(=O)N(C)C)cc1NCC(=O)Nc1ccccc1F | 11
Cc1ccc(CN2CCC(CO)(CC3CCCCO3)CC2)o1 (centres undefined) | 27
CC(=O)c1csc(Nc2ccccc2Cl)n1 | 8
O=C(c1cccc(F)c1)N(Cc1nc2ccccc2c(=O)[nH]1)C1CCCC1 | 13
Cc1ccc(CSc2nnc(C)c(=O)[nH]2)cc1 | 16
O=C(Nc1cccc(F)c1)c1ccc(CSc2ccccc2)o1 | 14
CCC(C)(c1nnnn1-c1c(C)cccc1C)N(N=O)c1ccccc1Cl (centres undefined) | 26
CC(=O)Nc1c(C(=O)N2CCN(c3ccccn3)CC2)cnn1-c1ccc(C)cc1 | 8
CC(C)[C@H](CO)Nc1nc(Nc2ccc(Cl)c(C(=O)O)c2)c2ncn(C(C)C)c2n1 | 20
NNC(=O)CS(=O)(=O)c1ccc(Cl)cc1 | 8
O=C(O)c1cnc(-c2ccccc2)nc1Oc1ccccc1 | 9
COc1ccccc1C1=Nn2c(COc3ccccc3)nnc2SC1 | 9
COc1ccc(OC)c(C=Nc2ccccc2-c2nc3ccccc3[nH]2)c1 | 10
O=C(Nc1ccc(Nc2ccccc2)cc1)C(Cl)(Cl)Cl | 7
O=C(O)CCn1c(=O)n(CCC(=O)O)c(=O)n(CCC(=O)O)c1=O | 13
Cc1ncoc1C(=O)N1CCCC(CCC(=O)NCc2ccccc2F)C1 (centres undefined) | -2
C=CCn1cccc(C(=O)Nc2ccc(OC)c(OC)c2)c1=O | 15
COc1cc(NC(=O)COC(=O)/C=C/c2c(C)nn(-c3ccc(F)cc3)c2Cl)cc(OC)c1 | 6
N#CCC(=O)N/N=C1\CCCCC1C1CCCCC1 (centres undefined) | 13
COc1ccc(N2C(=O)c3ccccc3S2(=O)=O)cc1 | 18
O=C1/C(=C/c2ccccc2)SC(=S)N1C1CCS(=O)(=O)C1 (centres undefined) | 30
COc1ccc2c(c1)C(=O)N(c1ccccc1C)C(=O)C2(C)C | -13
COc1ccc(OCC(=O)OCCNC(=O)c2cccnc2)cc1 | 16
COc1ccc(CC(NC(C)=O)C(=O)NC2CCN(S(=O)(=O)c3ccc(NC(C)=O)cc3)CC2)cc1OC (centres undefined) | 19
O=C(CSc1ncnc2ccccc12)c1ccc2c(c1)OCCO2 | 15
CCCC1(C(=O)OCC)NC(c2ccc(N(C)C)cc2)C2C(=O)N(c3ccc4c(c3)OCCO4)C(=O)C21 (centres undefined) | 17
NS(=O)(=O)c1ccc(CNS(=O)(=O)c2cccc3nonc23)cc1 | 14
O=[N+]([O-])c1cc(S(=O)(=O)Nc2ccccc2)ccc1NCc1cccnc1 | 16
C=C1CCN([C@@H](C)C(=O)NCc2ccc(Cl)cc2)S(=O)(=O)c2ccccc21 | 13
Cc1[nH]c2ccccc2c1C(Nc1nccs1)c1ccncc1 (centres undefined) | 3
O=S(=O)(Nc1cc(C(F)(F)F)ccc1N1CCOCC1)c1ccccc1 | 24
Cc1c(NC(=O)CN2c3ccccc3CC2C)c(=O)n(-c2ccccc2)n1C (centres undefined) | 15
COc1cc(OC)c(NC(=O)/C=C/C(=O)O)cc1Cl | -1
C/C(Cn1cnc([N+](=O)[O-])n1)=N\NC(=O)c1ccncc1 | 2
N/C(=N\OCc1ccc([N+](=O)[O-])cc1)c1ccncc1 | 11
O=C1CCC(=O)N1CCSC(=S)N1CCSCC1 | 22
Cc1ccc(/C=N/NC(=O)CSc2ccccn2)o1 | 14
Cc1ccc2nc(NC(=O)c3ccc(OCC4CCCO4)cc3)sc2c1 (centres undefined) | -8
OCCC1CN(Cc2ccon2)CCN1Cc1ccccc1 (centres undefined) | 26
O=C(NCC(=O)N(Cc1ccco1)C(C(=O)NC1CCCCC1)c1ccncc1)c1cccs1 (centres undefined) | 21
CCCCN(CCCC)C(=O)C[n+]1cccc(/C=N/O)c1 | 25
O=C(Nc1ccccc1)c1sc(N2CCOCC2)nc1-c1ccccc1 | -9
Cc1ccc(NCC(=O)N/N=C/c2cc(O)ccc2[N+](=O)[O-])cc1 | 4
Cc1ccc(NC(=O)c2ccc(OC(F)F)cc2)cc1S(=O)(=O)N(C)C | 12
CCN(CC)c1ccc(/C=N/NC(=O)c2c(Cl)c(C)nn2C)cc1 | 10
Cc1ccc(C)c(S(=O)(=O)NC(Cc2c[nH]c3ccccc23)C(=O)O)c1 (centres undefined) | 14
Cc1ccc(N(C(=O)Cc2cccs2)C(C(=O)NC2CCCC2)c2ccncc2)cc1 (centres undefined) | 25
O=C(Cc1c[nH]c2ccccc12)OCCOC(=O)Cc1c[nH]c2ccccc12 | -10
c1ccc(Cn2cnc3ccccc32)cc1 | 10
CCCCOc1ccc(CSCCN=C(N)N)cc1 | 31*
COc1ccc(OC)c(C2C3=C(CCCC3=O)Nc3nnnn32)c1 (centres undefined) | 21
O=C(Nc1cc(S(=O)(=O)N2CCOCC2)ccc1N1CCOCC1)c1ccc(S(=O)(=O)N2CCCCC2)cc1 | 7
CCc1nnc(NS(=O)(=O)c2ccc(N3C(=O)c4ccccc4C3=O)cc2)s1 | 5
COc1ccc(NC(=O)CN2CCN(c3ccccc3)CC2)cc1 | 3
Cc1nc(SCc2ccc(F)cc2)c2oc3ccccc3c2n1 | 20
CCCCn1c(/C=C/c2ccco2)nc2ccccc21 | 20
CC(=O)C1=C(C)OC(N)=C(C#N)C1c1cc([N+](=O)[O-])ccc1Cl (centres undefined) | 6
CC(=O)O/N=C(\N)c1cnn2c(C(F)(F)F)cc(C(F)(F)F)nc12 | 18

Later entries
smiles | Calb biofilm kill
COc1cc(NC(=O)CN2CCCCC2)c(C)cc1[N+](=O)[O-] | 7
CCC1NC(=S)NC(C)=C1C(=O)c1ccccc1 (centres undefined) | 33
O=C1c2ccccc2C(O)(c2ccccc2)N1c1ccncc1 (centres undefined) | 23
CCOC(=O)CSc1nc2cc3c(cc2cc1C)OCO3 | 11
Cc1cc(C)n2nc(C(=O)N/N=C/c3cccs3)nc2n1 | 9
Cc1ccc(N2C(=S)NC3c4cc(Cl)ccc4OC2(C)C3C(=O)N(C)C)cc1 (centres undefined) | -2
CCC1CCCN1Cn1cnc2c([nH]c3ccc(C)cc32)c1=O (centres undefined) | 11
Cc1[nH]oc(=O)c1N=Nc1c(Cl)cccc1Cl | 16
COc1ccc(N=Cc2c(O)ccc3ccccc23)cc1 | 7
CCN1C(=O)C(CC(=O)Nc2ccc(F)cc2)N(CCc2ccc(OC)cc2)C1=S (centres undefined) | 19
Cc1cc(C)n(C(=O)C(C)n2nc([N+](=O)[O-])c(Br)c2C)n1 (centres undefined) | 0
O=C1CC(NCc2ccc(F)cc2)C(=O)N1c1ccccc1 (centres undefined) | 17
COC(=O)CSc1nc(C)cc(C)n1 | 11
COc1ccccc1/C=C/C(=O)N1CCCC1 | 15
Cc1[nH]n(-c2ccccc2)c(=O)c1C=Nc1cccc(F)c1 | 20
COc1ccc(C/C(C)=N/NC(=O)c2ccc(C)cc2C)cc1 | 15
Nc1cc2c(cc1O)CCCC2 | 9
OCCC1CN(Cc2cccn2-c2nccs2)CCN1Cc1ccc(F)c(F)c1 (centres undefined) | 12
O=C(COC(=O)/C=C/c1cccc(Cl)c1)NCCc1ccccc1 | 10
c1ccc(SSc2ccccc2)cc1 | 11
COC(=O)Cn1cnc2c(cnn2-c2ccccc2)c1=O | 11
CCN(CC)c1ccc(/C=C/C(=O)c2cccnc2)cc1 | 9
CC(=O)Nc1ccc(S(=O)(=O)Oc2ccc(/C=C3\SC(N)=NC3=O)cc2)cc1 | 10
COc1ccc(C(=O)NC(=S)NCc2cccnc2)cc1Br | 8
CCOc1ccc(CN2CCN(CC3=Cc4cccc(OC)c4OC3)CC2CCO)cc1 (centres undefined) | 9
CN1CCC(N(C)C(=O)/C=C/c2cn(-c3ccccc3)nc2-c2cccs2)CC1 | 11
N/C(=N\OC(=O)CCC1CCCC1)c1cccnc1 | 4
CC(C)(C)S(=O)(=O)c1cnc(-c2ccccn2)nc1N | 13
COc1ccc2cc(CCNC(=O)c3cccs3)c(=O)[nH]c2c1 | 18
Nc1nc(COc2ccc(F)cc2)nc(N2CCCCC2)n1 | 13
CC(=O)Nc1ccc(N2CCOCC2)c([N+](=O)[O-])c1 | 12
COc1ccc(NS(=O)(=O)c2cc(NC(=O)CC3CCCC3)ccc2N2CCOCC2)cc1 | 8
NC1=NC(=O)/C(=C\C=C\c2ccccc2)S1 | 7
CCOP(=O)(OCC)C(NC(=O)c1cc([N+](=O)[O-])cc([N+](=O)[O-])c1)C(F)(F)F (centres undefined) | 5
Cc1ccc(C)c(NC(=O)C(Sc2nc3ccc(C)cc3[nH]2)c2ccccc2)c1 (centres undefined) | 10
Cc1ccc(S(=O)c2ccc(NC(=O)C3CC3)cc2C#N)cc1 (centres undefined) | 14
CCCc1nn(C)c2c(=O)[nH]c(-c3cc(S(=O)(=O)Nc4ccc(NC(C)=O)cc4)ccc3OCC)nc12 | 34
CC1=NNC(=O)C1CC(=O)N/N=C/c1ccc(C)o1 (centres undefined) | 22
Cc1nc2ccccc2nc(C)c1=NOCc1ccccc1Cl | 6
O=S(=O)(c1cccc2nsnc12)N1CCN(c2ccc(F)cc2)CC1 | 14
O=C1C=CC(=O)N1CCCCCCN1C(=O)C=CC1=O | 18
COCCN1Cc2cccc(C(=O)NCc3cccs3)c2C1=O | 10
CC(=O)c1ccc(N2CCN(CC(=O)Nc3ccc(N4CCOCC4)cc3)CC2)cc1 | 3
Cc1cc(N/C=C(\C#N)S(=O)(=O)c2ccc(Cl)cc2)nc(C)n1 | 10
CCN(CC)CCC(c1ccc2c(c1)OCO2)c1c(O)cc(OC)cc1OC (centres undefined) | 13
Cc1cc(C)nc(NNC(=O)c2ccccc2O)n1 | 8
O=C(Cn1cnc([N+](=O)[O-])n1)NCCO | 15
C=CCNC(=O)c1ccc(OC2CCN(S(=O)(=O)N(C)C)CC2)cc1 | 6
COc1ccc(Nc2nc(OC)nc(N3CCOCC3)n2)cc1 | 5
CCCSc1cc(=O)n(-c2ccc(F)cc2)nc1C(=O)OCC | 4
NS(=O)(=O)c1ccc(NC(=O)COC(=O)c2cccc(S(=O)(=O)N3CCCC3)c2)cc1 | 15
COc1cccc(CC(NC(C)=O)C(=O)NC2CCN(c3ncccc3[N+](=O)[O-])CC2)c1 (centres undefined) | 9
COC(=O)C1=CO[C@@H](OC2OC(CO)C(O)C(O)C2O)[C@@H]2C(CO)=CC[C@H]12 (some centres undefined) | 6
COc1ccc(/C=N/OC(=O)c2ccc(Cl)cc2)c(Cl)c1OC | 23
Cc1nnc(NC(=O)CCn2cnc3ccccc3c2=O)s1 | 35
Cc1nnc(SCCOc2ccccc2)s1 | 0
CC1=CC(C/C(C)=C/COc2ccc3ccc(=O)oc3c2)OC1=O (centres undefined) | 19
CCOC(=O)c1sc(/N=C/c2c(O)ccc3ccccc23)cc1C | 23
CN(C)CCCNS(=O)(=O)c1cc(Cl)c(Cl)cc1Cl | 16
Cc1ccc(CN(Cc2ccco2)C(=S)NCC(=O)O)cc1 | 20

Structures from the list above that have two or more sulfur atoms:
smiles | Calb biofilm kill
O=C1/C(=C/c2ccccc2)SC(=S)N1C1CCS(=O)(=O)C1 (centres undefined) | 30
NS(=O)(=O)c1ccc(CNS(=O)(=O)c2cccc3nonc23)cc1 | 14
O=C1CCC(=O)N1CCSC(=S)N1CCSCC1 | 22
O=C(Nc1cc(S(=O)(=O)N2CCOCC2)ccc1N1CCOCC1)c1ccc(S(=O)(=O)N2CCCCC2)cc1 | 7
CCc1nnc(NS(=O)(=O)c2ccc(N3C(=O)c4ccccc4C3=O)cc2)s1 | 5
c1ccc(SSc2ccccc2)cc1 | 11
CC(=O)Nc1ccc(S(=O)(=O)Oc2ccc(/C=C3\SC(N)=NC3=O)cc2)cc1 | 10
O=S(=O)(c1cccc2nsnc12)N1CCN(c2ccc(F)cc2)CC1 | 14
NS(=O)(=O)c1ccc(NC(=O)COC(=O)c2cccc(S(=O)(=O)N3CCCC3)c2)cc1 | 15
Cc1nnc(SCCOc2ccccc2)s1 | 0

The main list resumes, repeating the 4 entries before the break.
smiles | Calb biofilm kill
CC1=CC(C/C(C)=C/COc2ccc3ccc(=O)oc3c2)OC1=O (centres undefined) | 19
CCOC(=O)c1sc(/N=C/c2c(O)ccc3ccccc23)cc1C | 23
CN(C)CCCNS(=O)(=O)c1cc(Cl)c(Cl)cc1Cl | 16
Cc1ccc(CN(Cc2ccco2)C(=S)NCC(=O)O)cc1 | 20
CN(C)CCCSc1nc2ccccc2s1 | 27
CC(C)c1ccc(NC(=O)c2cc(S(=O)(=O)NCC3COc4ccccc4O3)ccc2F)cc1 (centres undefined) | 14
OCCN(Cc1ccccc1)Cc1ccccc1O | 6
CCOc1ccc(C(=O)N[C@H](C(=O)Nc2cccc(S(=O)(=O)N3CCCCC3)c2)C(C)C)cc1 | 14
CC(C(=O)NCC1CCCO1)c1ccc([N+](=O)[O-])cc1 (centres undefined) | -2
COC(=O)c1ccccc1S(=O)(=O)N1CCC(C(=O)OCC(=O)NCC(F)(F)F)CC1 | 16
Fc1ccccc1-c1nc2nc3ccccc3nc2n1CC1CCCO1 (centres undefined) | 23
COc1ccccc1CNC(=O)CSc1cc(=O)n(C)c2ccccc12 | 11

Screens from PubChem BioAssay.

A portion of the library, so the mix of outcomes need not match the whole.
